Screening results: PubChem BioAssay, Broad Institute
Ran FRET: inhibitors of Ran–importin-beta complex formation, primary screen, biochemical, CFP-Ran/YFP-importin-beta FRET, RCC1, cell-free (AID 434961). CFP-Ran/YFP-importin-beta FRET, cell-free; hits give high values. inhibition, %. hit rate 0.2% among 7,700;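 active = more than half of the replicate wells above 15% inhibition; inconclusive = exactly half above it; inactive = fewer than half above it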;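 also: 0% = DMSO wells and 100% inhibition = RanGDP control wells on each plate; stock of unstated strength diluted about 400-fold; mean of two wells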
* hit, by the source's call; u = inconclusive.

SMILES	Ran FRET
C[C@H]1CN([C@@H](C)CO)C(=O)c2cccc(NC(=O)c3ccncc3)c2O[C@H]1CN(C)Cc1ccc(Cl)c(Cl)c1	-2.0
C[C@@H]1CN([C@H](C)CO)C(=O)c2cc(NC(=O)Nc3ccccc3)ccc2O[C@@H]1CN(C)C(=O)Nc1ccc(C(F)(F)F)cc1	-2.8
C[C@@H]1CN([C@@H](C)CO)C(=O)c2cc(N(C)C)ccc2O[C@@H](C)CCCCO[C@@H]1CN(C)C(=O)C1CCCCC1	-7.7
C[C@H]1CN([C@@H](C)CO)C(=O)c2cccc(NC(=O)c3cnccn3)c2O[C@@H]1CN(C)C(=O)Nc1ccc(F)cc1	-0.3
C[C@@H]1CCCCO[C@H](CN(C)Cc2ccncc2)[C@@H](C)CN([C@@H](C)CO)C(=O)c2cc(NS(=O)(=O)c3ccccc3)ccc2O1	3.1
C[C@@H]1CN([C@H](C)CO)C(=O)Cc2cc(NC(=O)Nc3ccc(F)cc3)ccc2O[C@@H]1CN(C)Cc1ccc(C(=O)O)cc1	-6.7
C[C@@H]1CN([C@H](C)CO)C(=O)c2cccc(NS(=O)(=O)c3ccc(F)cc3)c2O[C@H]1CN(C)Cc1ccc(C(F)(F)F)cc1	-1.2
C[C@@H]1CCCCO[C@@H](CN(C)C(=O)CCCN(C)C)[C@@H](C)CN([C@@H](C)CO)C(=O)c2cc(NC(=O)CCCN(C)C)ccc2O1	-4.3
C[C@H](CO)N1C[C@H](C)[C@@H](CN(C)C(=O)Nc2cccc3ccccc23)Oc2c(NC(=O)c3ccc(-c4nccs4)cc3)cccc2C1=O	u
C[C@H]1CN([C@@H](C)CO)C(=O)c2cccc(NC(=O)c3ccc(-c4nccs4)cc3)c2O[C@H]1CN(C)S(=O)(=O)c1cccs1	1.7
C[C@H](CO)N1C[C@H](C)[C@@H](CN(C)S(=O)(=O)c2cn(C)cn2)OCCCC[C@H](C)Oc2ccc(NS(C)(=O)=O)cc2C1=O	u
C[C@H]1CN([C@@H](C)CO)C(=O)c2cccc(NC(=O)c3nc4ccccc4s3)c2O[C@@H]1CN(C)S(=O)(=O)c1cccs1	2.7
C[C@@H]1CN([C@@H](C)CO)C(=O)c2cc(NC(=O)Nc3ccc4c(c3)OCO4)ccc2O[C@@H]1CN(C)Cc1ccncc1	-0.7
C[C@@H]1CN([C@H](C)CO)C(=O)c2cccc(NC(=O)c3ccncc3)c2O[C@H]1CN(C)S(=O)(=O)c1cn(C)cn1	2.6
C[C@H]1CN([C@@H](C)CO)C(=O)Cc2cc(NS(C)(=O)=O)ccc2O[C@@H]1CN(C)C(=O)Nc1ccc(C(F)(F)F)cc1	1.2
COc1ccc(CN(C)C[C@@H]2Oc3ccc(NS(=O)(=O)c4ccc(Cl)cc4)cc3CC(=O)N([C@@H](C)CO)C[C@H]2C)cc1	6.6
CC(C)NC(=O)Nc1ccc2c(c1)C(=O)N([C@@H](C)CO)C[C@@H](C)[C@H](CN(C)S(=O)(=O)c1cn(C)cn1)OCCCC[C@H](C)O2	-1.8
C[C@@H]1CCCCO[C@H](CN(C)S(C)(=O)=O)[C@H](C)CN([C@@H](C)CO)C(=O)c2cc(NS(=O)(=O)c3ccccc3)ccc2O1	-1.0
C[C@@H]1CCCCO[C@H](CN(C)C)[C@@H](C)CN([C@@H](C)CO)C(=O)c2cc(NC(=O)CCC(F)(F)F)ccc2O1	-5.0
C[C@@H]1CCCCO[C@H](CN(C)C(=O)CCC(F)(F)F)[C@H](C)CN([C@H](C)CO)C(=O)c2cc(NC(=O)Cc3ccccc3)ccc2O1	-0.1

Grouped by structure: those above with two or more sulfur atoms
SMILES	Ran FRET
C[C@H]1CN([C@@H](C)CO)C(=O)c2cccc(NC(=O)c3ccc(-c4nccs4)cc3)c2O[C@H]1CN(C)S(=O)(=O)c1cccs1	1.7
C[C@H](CO)N1C[C@H](C)[C@@H](CN(C)S(=O)(=O)c2cn(C)cn2)OCCCC[C@H](C)Oc2ccc(NS(C)(=O)=O)cc2C1=O	u
C[C@H]1CN([C@@H](C)CO)C(=O)c2cccc(NC(=O)c3nc4ccccc4s3)c2O[C@@H]1CN(C)S(=O)(=O)c1cccs1	2.7
C[C@@H]1CCCCO[C@H](CN(C)S(C)(=O)=O)[C@H](C)CN([C@@H](C)CO)C(=O)c2cc(NS(=O)(=O)c3ccccc3)ccc2O1	-1.0

Following part.
SMILES	Ran FRET
CC(C)NC(=O)N(C)C[C@H]1OCCCC[C@H](C)Oc2ccc(NC(=O)Nc3ccc(C(F)(F)F)cc3)cc2C(=O)N([C@H](C)CO)C[C@@H]1C	-0.4
C[C@H]1CN([C@@H](C)CO)C(=O)Cc2cc(NC(=O)CCC(F)(F)F)ccc2O[C@H]1CN(C)Cc1ccc2c(c1)OCO2	0.0
C[C@H](CO)N1C[C@H](C)[C@H](CN(C)S(=O)(=O)c2cccs2)Oc2ccc(NC(=O)C3CC3)cc2C1=O	-9.5
Cc1noc(C)c1S(=O)(=O)N(C)C[C@H]1OCCCC[C@H](C)Oc2ccc(NC(=O)NC(C)C)cc2C(=O)N([C@H](C)CO)C[C@H]1C	1.6
C[C@H](CO)N1C[C@H](C)[C@@H](CN(C)S(=O)(=O)c2cccs2)OCCCC[C@H](C)Oc2ccc(NC(=O)Cc3ccccc3)cc2C1=O	-1.7
C[C@H](CO)N1C[C@H](C)[C@@H](CN(C)C)OCc2cnnn2CCCC1=O	2.2
CC(C)NC(=O)N(C)C[C@@H]1OCc2cn(nn2)CCCC(=O)N([C@H](C)CO)C[C@H]1C	-1.4
CNC[C@@H]1OCc2cn(nn2)CCCC(=O)N([C@H](C)CO)C[C@@H]1C	5.2
COc1ccccc1CN(C)C[C@@H]1OCc2cn(nn2)CCCC(=O)N([C@H](C)CO)C[C@H]1C	-3.3
COc1ccc(NC(=O)Nc2ccc3c(c2)CC(=O)N([C@H](C)CO)C[C@H](C)[C@H](CN(C)S(C)(=O)=O)O3)cc1	-3.2
Cc1noc(C)c1S(=O)(=O)N(C)C[C@H]1OCCCC[C@H](C)Oc2ccc(NC(=O)NC(C)C)cc2C(=O)N([C@@H](C)CO)C[C@@H]1C	4.6
C[C@@H]1CCCCO[C@H](CN(C)Cc2ccccc2)[C@@H](C)CN([C@H](C)CO)C(=O)c2cc(NS(=O)(=O)c3ccccc3)ccc2O1	u
C[C@H]1CN([C@@H](C)CO)C(=O)Cc2cc(N(C)C)ccc2O[C@@H]1CN(C)Cc1ccncc1	-0.3
COc1ccc(S(=O)(=O)N(C)C[C@@H]2Oc3c(NC(=O)c4cc(C)nn4C)cccc3C(=O)N([C@H](C)CO)C[C@H]2C)cc1	-2.8
CNC[C@@H]1OCCCC[C@@H](C)Oc2ccc(NS(=O)(=O)c3c(C)noc3C)cc2C(=O)N([C@H](C)CO)C[C@@H]1C	-2.0
C[C@@H]1CCCCO[C@H](CN(C)C(=O)CCCN(C)C)[C@H](C)CN([C@@H](C)CO)C(=O)c2cc(N(C)C)ccc2O1	-2.0
C[C@@H]1CCCCO[C@H](CN(C)Cc2ccccc2)[C@@H](C)CN([C@@H](C)CO)C(=O)c2cc(NS(C)(=O)=O)ccc2O1	-1.3
Cc1noc(C)c1S(=O)(=O)N(C)C[C@@H]1Oc2ccc(NS(=O)(=O)c3cn(C)cn3)cc2CC(=O)N([C@H](C)CO)C[C@@H]1C	1.4
C[C@@H]1CN([C@H](C)CO)C(=O)c2cccc(NC(=O)c3cnccn3)c2O[C@H]1CN(C)C(=O)Nc1ccccc1	-2.9
C[C@@H]1CN([C@H](C)CO)C(=O)Cc2cc(NC(=O)C3CC3)ccc2O[C@H]1CN(C)S(=O)(=O)c1cccs1	-4.0

Looked up above:
`C[C@H]1CN([C@@H](C)CO)C(=O)Cc2cc(N(C)C)ccc2O[C@@H]1CN(C)Cc1ccncc1` | Ran FRET = -0.3
`COc1ccccc1CN(C)C[C@@H]1OCc2cn(nn2)CCCC(=O)N([C@H](C)CO)C[C@H]1C` | Ran FRET = -3.3

Next section
SMILES	Ran FRET
C[C@@H]1CN([C@H](C)CO)C(=O)Cc2cc(NC(=O)CCC(F)(F)F)ccc2O[C@H]1CN(C)C	-3.7
C[C@H](CO)N1C[C@H](C)[C@@H](CN(C)S(=O)(=O)c2cn(C)cn2)Oc2c(NS(=O)(=O)c3ccc(Cl)cc3)cccc2C1=O	3.2
C[C@H](CO)N1C[C@H](C)[C@@H](CN(C)C)OCCCC[C@H](C)Oc2ccc(NS(=O)(=O)c3cn(C)cn3)cc2C1=O	4.4
COc1ccc(S(=O)(=O)Nc2ccc3c(c2)C(=O)N([C@H](C)CO)C[C@H](C)[C@H](CN(C)S(=O)(=O)c2cccs2)O3)cc1	-1.5
C[C@@H]1CN([C@@H](C)CO)C(=O)c2cc(NC(=O)c3ccncc3)ccc2O[C@@H]1CN(C)C(=O)Nc1ccc2c(c1)OCO2	u
C[C@@H]1CN([C@H](C)CO)C(=O)Cc2cc(NC(=O)Cc3ccccc3)ccc2O[C@H]1CN(C)C(=O)Nc1ccccc1	-1.1
C[C@@H]1CN([C@@H](C)CO)C(=O)c2cccc(NS(=O)(=O)c3cn(C)cn3)c2O[C@H]1CN(C)C(=O)NC1CCCCC1	7.4
C[C@H]1CN([C@@H](C)CO)C(=O)Cc2cc(NC(=O)C3CC3)ccc2O[C@@H]1CN(C)Cc1ccc(C(F)(F)F)cc1	7.1
C[C@H](CO)N1C[C@H](C)[C@H](CN(C)Cc2ccc(Oc3ccccc3)cc2)OCc2cnnn2CCCC1=O	-2.0
C[C@@H]1CCCCO[C@@H](CN(C)C(=O)CCC(F)(F)F)[C@H](C)CN([C@@H](C)CO)C(=O)c2cc(NC(=O)c3ccncc3)ccc2O1	0.7
C[C@@H]1CN([C@@H](C)CO)C(=O)CCCn2nncc2CO[C@H]1CN(C)C(=O)c1ccccc1	-0.7
C[C@@H]1CN([C@H](C)CO)C(=O)c2cc(NC(=O)NC3CCCCC3)ccc2O[C@H]1CN(C)C	-1.0
C[C@H](CO)N1C[C@H](C)[C@H](CN(C)Cc2cccc(C(F)(F)F)c2)Oc2ncccc2C1=O	-0.9
C[C@@H]1CN([C@H](C)CO)C(=O)c2cc(NC(=O)Nc3cccc4ccccc34)ccc2O[C@@H]1CN(C)C(=O)Nc1ccc2c(c1)OCO2	2.7
C[C@@H]1CCCCO[C@@H](CN(C)C)[C@H](C)CN([C@H](C)CO)C(=O)c2cc(NC(=O)C3CCCCC3)ccc2O1	0.1
COc1ccc(CN(C)C[C@@H]2Oc3ccc(NS(=O)(=O)c4ccc(Cl)cc4)cc3CC(=O)N([C@@H](C)CO)C[C@@H]2C)cc1	-0.9
C[C@@H]1CN([C@H](C)CO)C(=O)c2cccc(NS(=O)(=O)c3cn(C)cn3)c2O[C@H]1CN(C)C	-0.2
CNC[C@H]1Oc2ccc(NC(=O)Nc3ccc(F)cc3)cc2C(=O)N([C@H](C)CO)C[C@H]1C	-6.8
CC(C)NC(=O)Nc1ccc2c(c1)CC(=O)N([C@@H](C)CO)C[C@@H](C)[C@@H](CN(C)Cc1ccc(C(F)(F)F)cc1)O2	2.6
C[C@@H]1CN([C@H](C)CO)C(=O)c2cc(NC(=O)C3CCCCC3)ccc2O[C@@H](C)CCCCO[C@@H]1CN(C)Cc1ccc(C(=O)O)cc1	2.0

Some of these compounds in order of the Ran FRET value, highest first.
SMILES	Ran FRET
CC(C)NC(=O)Nc1ccc2c(c1)CC(=O)N([C@@H](C)CO)C[C@@H](C)[C@@H](CN(C)Cc1ccc(C(F)(F)F)cc1)O2	2.6
COc1ccc(CN(C)C[C@@H]2Oc3ccc(NS(=O)(=O)c4ccc(Cl)cc4)cc3CC(=O)N([C@@H](C)CO)C[C@@H]2C)cc1	-0.9
C[C@H](CO)N1C[C@H](C)[C@H](CN(C)Cc2ccc(Oc3ccccc3)cc2)OCc2cnnn2CCCC1=O	-2.0

Following part
SMILES	Ran FRET
CNC[C@H]1Oc2ccc(N)cc2C(=O)N([C@@H](C)CO)C[C@@H]1C	13.3
C[C@@H]1CN([C@@H](C)CO)C(=O)c2cccc(NS(C)(=O)=O)c2O[C@H]1CN(C)Cc1ccncc1	-0.4
C[C@H](CO)N1C[C@H](C)[C@@H](CN(C)C(=O)Nc2ccccc2)Oc2ccc(NC(=O)CCN3CCOCC3)cc2C1=O	3.5
C[C@H](CO)N1C[C@H](C)[C@H](CN(C)C(=O)Nc2ccc(F)cc2)Oc2ncc(C#CCC3CCCC3)cc2C1=O	3.0
COc1ccc(CN(C)C[C@H]2Oc3ccc(NC(=O)Nc4c(C)noc4C)cc3CC(=O)N([C@@H](C)CO)C[C@@H]2C)cc1	3.0
C[C@@H]1CN([C@@H](C)CO)C(=O)c2cccc(NC(=O)c3nc4ccccc4s3)c2O[C@@H]1CN(C)CC1CC1	u
C[C@H](CO)N1C[C@H](C)[C@H](CN(C)Cc2ccc(F)cc2)Oc2ncc(C#Cc3ccccc3)cc2C1=O	-0.5
C[C@H](CO)N1C[C@H](C)[C@@H](CN(C)Cc2ccc3c(c2)OCO3)OCCCC[C@H](C)Oc2ccc(NC(=O)CCCN(C)C)cc2C1=O	-1.7
C[C@H](CO)N1C[C@H](C)[C@H](CN(C)CC2CC2)Oc2ccc(NS(=O)(=O)c3cccs3)cc2C1=O	-2.8
COc1ccc(CN(C)C[C@H]2Oc3c(NS(=O)(=O)c4cn(C)cn4)cccc3C(=O)N([C@@H](C)CO)C[C@H]2C)cc1	-3.2
C[C@H](CO)N1C[C@H](C)[C@@H](CN(C)C)Oc2ccc(NC(=O)NC3CCCCC3)cc2CC1=O	-1.1
Cc1noc(C)c1NC(=O)N(C)C[C@H]1OCCCC[C@H](C)Oc2ccc(NS(=O)(=O)c3cn(C)cn3)cc2C(=O)N([C@H](C)CO)C[C@@H]1C	-2.6
Cc1noc(C)c1S(=O)(=O)Nc1ccc2c(c1)C(=O)N([C@H](C)CO)C[C@@H](C)[C@H](CN(C)C(=O)Nc1ccc3c(c1)OCO3)O2	0.3
Cc1noc(C)c1S(=O)(=O)N(C)C[C@@H]1OCc2cnnn2CCCC(=O)N([C@@H](C)CO)C[C@H]1C	6.3
C[C@@H]1CN([C@@H](C)CO)C(=O)c2cc(NC(=O)CCC(F)(F)F)ccc2O[C@@H](C)CCCCO[C@H]1CN(C)C	2.1
C[C@H]1CN([C@@H](C)CO)C(=O)c2cc(NS(C)(=O)=O)ccc2O[C@H]1CN(C)C(=O)NC1CCCCC1	1.5

A portion of the library; the hit share may differ from the screen's.
